Screens as filed in PubChem BioAssay.
CtBP-E1A inh – blocks the CtBP interaction with E1A | activity change, % (concentration not given with the values) | actives 0.49% (n = 340,000) | AID 651724 | AlphaScreen GST-E1A/His-CtBP binding, 1536-well; stronger effect = lower value; control for the full effect not named in the record; in the data active means activity change below about -65%; inconclusive means about -30% to -65%; inactive means above about -30%; further: on the % scale 0 is the no-effect control and ±100 the full control effect
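Homogeneous bead-based format: GST-tagged E1A captured on glutathione donor beads, His-tagged CtBP on nickel acceptor beads; compounds precede bead addition by 2 h at 37 °C.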
TRPV1 potentiator – potentiators of human vanilloid receptor 1 (TRPV1); Q8NER1; actives 0.02% (n = 320,000); potentiation, % at 8.33 µM; TRPV1-expressing cells, Fluo-8 calcium influx, capsaicin EC20 potentiation; host cell line not named in the record; control for the full effect not named in the record; AID 540277; active means potentiation above 80%; inconclusive means 30% to 80%; inactive means below 30%; further: 0% is about no effect
Target sequence (Q8NER1 whole entry, looked up): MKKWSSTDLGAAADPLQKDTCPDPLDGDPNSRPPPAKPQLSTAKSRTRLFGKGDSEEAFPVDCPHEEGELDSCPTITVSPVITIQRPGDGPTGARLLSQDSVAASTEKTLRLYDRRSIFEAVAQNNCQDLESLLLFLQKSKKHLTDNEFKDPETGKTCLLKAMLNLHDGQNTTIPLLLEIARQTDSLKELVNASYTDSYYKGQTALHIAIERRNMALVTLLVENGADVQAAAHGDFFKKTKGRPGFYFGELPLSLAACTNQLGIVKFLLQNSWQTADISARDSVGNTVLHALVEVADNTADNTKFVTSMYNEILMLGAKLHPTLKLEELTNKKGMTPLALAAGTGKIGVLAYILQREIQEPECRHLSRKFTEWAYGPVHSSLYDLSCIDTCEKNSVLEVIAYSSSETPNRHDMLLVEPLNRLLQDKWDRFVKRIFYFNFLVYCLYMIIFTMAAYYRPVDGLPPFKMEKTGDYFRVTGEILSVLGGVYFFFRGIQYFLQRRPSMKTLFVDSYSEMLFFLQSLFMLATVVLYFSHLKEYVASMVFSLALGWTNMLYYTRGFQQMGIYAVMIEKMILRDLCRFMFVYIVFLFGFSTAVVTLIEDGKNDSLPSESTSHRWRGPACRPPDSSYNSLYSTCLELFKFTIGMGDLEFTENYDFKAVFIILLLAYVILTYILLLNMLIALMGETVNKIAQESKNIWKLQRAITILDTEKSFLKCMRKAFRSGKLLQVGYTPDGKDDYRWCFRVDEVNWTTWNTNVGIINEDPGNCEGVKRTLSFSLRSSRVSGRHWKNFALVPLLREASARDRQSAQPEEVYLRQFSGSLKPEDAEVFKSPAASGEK
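TRPV1-expressing cells were cultured overnight at 35.5C and loaded with Fluo-8 calcium dye for 40 to 90 min at room temperature. After a 10 s baseline, compound was added and calcium influx was read kinetically for 3 min (ex 480/em 520 nm).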
TRPML1 blocker – inhibitors of human TRPML1 channel; Q9GZU1; TRPML1-inducible cells, Ca2+ dye fluorescence, FDSS; stronger effect = lower value; inhibition of EC80 agonist-evoked calcium signal; activity change, negative = inhibition, % (test concentration not listed); actives 0.02% (n = 390,000); in the data active means activity change below about -50%; inconclusive means about -30% to -50%; inactive means above about -30%;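 further: stimulus is agonist 54-4 at its EC80 concentration; on the % scale 0 is the no-effect control and ±100 the full control effect; compound concentration not given in the record; the text of the record puts the active cut at -80%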
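TRPML1-DL cells, Tet-induced overnight (~16 h, 37 °C) at 1,500 cells/well, were loaded with Ca8 no-wash dye plus quencher for 45-90 min at room temperature. Compounds were pinned during FDSS kinetic reading; agonist 54-4 at EC80 (4 uM final) then added.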
TRPML1 agonist – activates the human TRPML1 channel | TRPML1-expressing cells, Ca2+ dye fluorescence, FDSS; host cell line not named in the record; reference of the full effect not given here | activation, % (concentration not given with the values) | actives 0.12% (n = 410,000); in the data active = activation above about 50%; inconclusive = about 30% to 50%; inactive = below about 30%; further: 0% is about no effect; the text of the record puts the active cut at 80%
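Cells: TRPML1-DL, 1X Tet inducer, ~16 h at 37 degrees C/5% CO2. Dye: ABD Ca8 no-wash + quencher, 45-90 min RT. Read: 10 s baseline, compound add, 110 s agonist phase; 54-4 EC80 (4uM final), 110 s antagonist phase.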
D2 PAM – human D2 receptor positive allosteric modulation; actives 0.23% (n = 360,000); DiscoveRx D2 beta-arrestin cells, luminescence, 90 min; 100% = 57 uM dopamine signal; P14416; AID 624464; potentiation, % (test concentration not listed); active = potentiation of 50% or more; inconclusive = 30% to 50%; inactive = 30% or less;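 further: compound concentration not given in the record; tested on top of an EC20 dose of dopamine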
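D2 cells co-treated with compound plus 50 nM dopamine (EC20) for 90 min at 37 deg C to detect potentiation. Beta-arrestin recruitment was read as enzyme-fragment luminescence after 1 h at ambient temperature. Full response was set by 57 uM dopamine.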
Six1-Eya2 blk – Six1/Eya2 interaction inhibition. actives 0.56% (n = 360,000). AlphaScreen GST-Six1/His-Eya2 binding, biochemical; stronger effect = lower value; control for the full effect not named in the record. activity change, % (concentration not given with the values). Q15475+O00167; in the data active = activity change below about -65%; inconclusive = about -30% to -65%; inactive = above about -30%; further: on the % scale 0 is the no-effect control and ±100 the full control effect
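Compounds are tested against tagged Six1 and Eya2 proteins bridged by glutathione donor and nickel acceptor beads; after a one-hour incubation at 37 °C without light, AlphaScreen emission is recorded.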
Starred values were filed as active, the others as inactive; ? = inconclusive; nt = not tested or not shown.

Structure	CtBP-E1A inh	TRPV1 potentiator	TRPML1 blocker	TRPML1 agonist	D2 PAM	Six1-Eya2 blk
S=c1[nH]nc(-c2cccs2)n1/N=C/c1cn(-c2ccccc2)nc1-c1ccc(Cl)cc1	-14	-24	-7	-0.3	-16	-8
Cn1nccc1C(=O)N1CCCC(N2CCN(Cc3ccc4c(c3)OCO4)CC2)C1 (stereo not drawn)	4	4	-4	0.5	-38	-1
CCCCCc1ccc(OCCC[n+]2ccccc2)c(CCCCC)c1	-1	2	20	11	-18	16
CC(C)(C)NC(=O)/C(=C/c1ccco1)c1ccccc1	-3	-8	-3	0.6	8	-1
COc1ccc(-c2ccc(C(=O)O)c(=O)[nH]2)cc1	0	-2	-9	2.3	1	6
O=C(Nc1c(Cl)cc(Cl)cc1C(=O)NCC1CCCO1)c1ccco1 (stereo not drawn)	3	8	-17	-0.3	7	5
COc1ccc(CN(C)C(=O)Cc2ccc(OC)c(S(=O)(=O)N3CCOCC3)c2)cc1OC	3	1	-18	1.4	-1	-1
CCc1ccccc1NC(=O)CN1CCN(CC(=O)Nc2cc(C)ccc2OC)CC1	-18	3	13	-0.3	-1	4
CC1CCCC(C)N1C(=O)COC(=O)c1cc(=O)[nH]c2ccccc12 (stereo not drawn)	4	nt	4	-0.3	-2	-1
CCc1nc2cccnc2n1-c1ccc(CC(=O)NC(C)CC)cc1 (stereo not drawn)	3	-6	34	3.1	-1	0
CCOC(=O)C(=O)N1CCN(c2cc3c(cc2[N+](=O)[O-])n(C)c(=O)n3C)CC1	2	4	33	-1.1	-12	-10
CC(C)c1ccc(OCC(O)CN2CCN(c3ccccn3)CC2)cc1 (stereo not drawn)	-3	?	15	1.4	15	0
O=C(COc1cccc(-n2cnnn2)c1)Nc1ccccc1	-19	7	24	1.1	-6	5
COc1ccc(CCNC(=O)CNCC2CCCO2)cc1OC (stereo not drawn)	12	9	-9	0.4	-7	4
O=C(CCNC(=O)c1ccccc1Cl)Nc1cc(C(F)(F)F)ccc1N1CCCC1	-1	-12	41	0.8	3	5
C=C(C)c1cccc(C(C)(C)NC(=O)Nc2ccc(Cl)cn2)c1	11	29	-7	6.6	-9	-6
COc1ccc(C(=O)c2sc(Nc3ccccc3)nc2N)cc1OC	-10	0	16	1.5	-8	-22
Cc1cc(C(=O)COC(=O)c2n[nH]c3ccccc23)c(C)n1CC1CCCO1 (stereo not drawn)	0	4	-11	1.3	2	-9
CNC(=O)/C(C#N)=C1/SC(Cc2ccc(F)cc2)C(=O)N1c1ccccc1 (stereo not drawn)	5	nt	9	0.1	8	3
N#C/C(=C(/O)COc1ccccc1)c1nc2ccccc2s1	-5	0	1	-0.2	-8	2
CC(C(=O)N1CCCCC1)N1C(=O)c2ccccc2C1=O (stereo not drawn)	3	?	4	0.0	-15	-9
Cn1cc(S(=O)(=O)N2CCc3ccccc32)cc1C(=O)NC(C)(C)C	3	12	12	0.2	-2	0
CCOC(=O)C1CCCN(Cc2nc(N)nc(Nc3ccccc3OC)n2)C1 (stereo not drawn)	-13	-1	27	-0.7	-6	-1
CCOC(=O)N1CCN(S(=O)(=O)N2CCCC(C(=O)NCc3ccccc3Cl)C2)CC1 (stereo not drawn)	0	2	0	0.9	1	-1
COc1ccc(CNC(=O)Cn2nnc(-c3ccc(NC(=O)C4CCCCC4)cc3)n2)cc1	7	8	0	-0.7	2	9
CN=C(NC1CCCCC1)c1ccc(Cl)cc1	5	-2	5	-0.4	-13	5
COc1ccccc1CNC(=O)Cn1cc(Br)ccc1=O	7	11	-29	0.6	-5	4
CCCSC1=N/C(=C\C=C\c2ccco2)C(=O)S1	-12	-3	-17	-0.4	3	?
Cc1noc(C)c1S(=O)(=O)N(CC(=O)NC1CCC(C)CC1)c1ccc(C(C)C)cc1 (stereo not drawn)	6	25	6	-0.9	0	4
CCCN1CCN(c2ncnc3scc(C4COc5ccccc5O4)c23)CC1 (stereo not drawn)	-15	13	35	1.3	-10	-16
CC(=O)Nc1cccc(N(C)S(C)(=O)=O)c1	-5	?	-18	1.4	0	4
c1ccc(NCc2ccccn2)cc1	nt	3	25	0.2	-12	-2
Clc1ccccc1CSc1nnc(-c2ccccn2)n1Cc1ccco1	-17	-14	15	2.2	-8	-16
O=C(N/N=C/c1cn(-c2ccccc2)nc1-c1ccc(F)cc1)c1ccc2c(c1)OCO2	-7	-2	20	2.0	5	6
S=C1NC2=C(CCC/C2=C\c2ccc(Cl)cc2)C(c2ccc(Cl)cc2)N1 (stereo not drawn)	-7	nt	-1	-0.8	-13	-10
CC1CCc2[nH]c3ccc(C(=O)Nc4ccc(C(=O)N(C)C)cc4)cc3c2C1 (stereo not drawn)	8	-4	-2	2.8	10	-1
CCN(Cc1ccccc1)C(=O)CCCOc1ccccc1	26	-12	26	1.8	-20	14
O=C(C1=C[C@@H](c2ccc(C(F)(F)F)cc2)C[C@@H](OCc2ccc(CO)cc2)O1)N1CCOCC1	5	-26	25	-0.1	-6	2
COc1ccccc1C(=O)NCCC(=O)NCC(c1ccccc1OC)N1CCCC1 (stereo not drawn)	1	-9	-9	-0.8	-5	0
Cc1cc2nnc(SCC(=O)N3CCOCC3)n2c2ccccc12	-15	6	2	0.7	-11	20
CC(=O)c1ccc(N2CCN(C(=O)c3noc4c3CSc3ccccc3-4)CC2)cc1	nt	-6	-10	1.0	-6	1
CCCCNC(=O)[C@H](CSCc1ccccc1)N1Cc2ccccc2C1=O	0	-46	5	1.5	-8	-1
NC(=O)c1ccc(-n2nnnc2SCc2ccc(F)cc2)cc1	4	2	-5	-0.5	7	3
O=C(NCc1cccnc1)NC1(c2ccccc2)CC1	-12	nt	29	-0.2	-1	2
CC(=O)Oc1ccccc1C(=O)N1CCN(S(=O)(=O)c2ccc3ccccc3c2)CC1	nt	?	-17	0.0	-1	-7
CC1(C)Cc2c(c(N3CCCC3)nc3sc4c(N5CCNCC5)ncnc4c23)CO1	nt	nt	18	-0.7	-10	-3
CCOC(=O)Nc1ccccc1N1C(=O)c2ccccc2C1=O	-2	11	-6	-0.2	6	7
Cc1ccc2oc(=O)c3cnn(CC(=O)N4CCCCC4C)c3c2c1 (stereo not drawn)	9	-18	13	1.0	-1	10
CN(C)S(=O)(=O)c1ccc(NC(=O)Cn2c(-c3ccccc3)noc2=O)cc1	54	6	1	0.5	9	19
Cc1ccc(S(N)(=O)=O)cc1NC(=O)/C=C/c1ccc2c(c1)OCO2	0	-8	-9	-0.2	-29	-3
CCOC(=O)c1nnn(-c2nonc2N)c1-c1ccc(Br)cc1	-3	6	10	1.5	-4	2
COCCNc1nc2ccccc2nc1NS(=O)(=O)c1ccc(C)cc1C	8	6	-2	-0.6	-2	11
O=C(c1ccc2c(c1)OCO2)[C@@H]1[C@@H]2C(=O)N(C3CCCCC3)C(=O)[C@@H]2C2c3ccccc3C=CN21 (stereo partly drawn)	23	1	2	0.4	-23	14
Cc1cc(Br)c(S(=O)(=O)NCc2cccnc2)cc1C	7	-9	8	-0.6	-2	1
COc1cc(CCN(C(=O)c2cccc(S(C)(=O)=O)c2)C(CCc2ccccc2)c2nc3ccccc3[nH]2)cc(OC)c1 (stereo not drawn)	-9	nt	-6	1.7	-3	-6
O=C1NC(=Nc2cccc(O)c2)S/C1=C\c1cccc([N+](=O)[O-])c1	3	29	1	-1.7	-6	-11
CC(C)CC(CO)N1CCN(C(=O)c2ccc(Cl)c(Cl)c2)CCC1=O (stereo not drawn)	2	nt	-9	-0.2	-5	-1
Cc1nnnn1/C(=C\c1ccccc1)C(=O)OCC(=O)NC1CCCCC1	8	-2	-11	1.5	-30	8
NC1=CC(=O)C(=O)c2cccnc21	?	nt	13	-0.6	-12	-14
CCC(=O)N1CCc2cc(S(=O)(=O)CCC(=O)O)ccc21	4	1	4	-0.6	29	1

Next part:
Structure	CtBP-E1A inh	TRPV1 potentiator	TRPML1 blocker	TRPML1 agonist	D2 PAM	Six1-Eya2 blk
Cc1nc2ccc(N)cc2c(=O)n1Cc1ccc(Cl)cc1	-6	12	11	0.1	22	0
CCOC(=O)C1=C(CSCc2ccccc2)NC(=O)NC1c1cc(C)ccc1C (stereo not drawn)	-14	18	3	2.7	4	-12
O=S(=O)(NC1=NCCC1)c1cccc(NS(=O)(=O)c2ccc(F)c(Cl)c2)c1	5	-2	-13	-0.5	1	4
Cc1oc(-c2cccs2)nc1CN1CCN(C(C)C)C(CCO)C1 (stereo not drawn)	10	0	-6	0.0	-9	2
Cc1cc(C)c(S(=O)(=O)c2cccc(Br)c2C)c(Cl)n1	1	20	-2	-0.2	-36	5
O=C(NNC(=O)c1cccc(Cl)c1)NNC(=O)c1cccc(Cl)c1	0	nt	1	0.5	-31	7
COc1ccc(CNC(=O)C(=O)NCC2CCCN2S(=O)(=O)c2cccs2)cc1 (stereo not drawn)	10	9	8	-0.8	-18	0
CC(=O)N[C@H]1C(O)O[C@H](CO)[C@@H](O)[C@@H]1O (stereo partly drawn)	1	-1	-8	-0.6	3	-1
Cc1ccc2c(c1)C1CN(C)CCC1N2S(=O)(=O)c1ccc(Oc2ccc([N+](=O)[O-])cc2)cc1 (stereo not drawn)	?	-6	14	0.5	-10	?
Cc1cccc(N(C(=O)c2ccc(Cl)cc2)C2CS(=O)(=O)CC2OC(=O)c2ccc(Cl)cc2)c1 (stereo not drawn)	-1	8	-2	2.9	-12	-10
Cc1cc2c(cc1S(=O)(=O)Nc1cccc(F)c1)n(C)c(=O)c(=O)n2C	0	6	-29	1.4	2	3
COc1ccc(-c2coc3cc(OC)ccc3c2=O)cc1	4	nt	nt	nt	-10	4
CCOC(=O)C(C(=O)OCC)C(Nc1cccc(Br)c1)c1ccccc1 (stereo not drawn)	4	-18	0	1.3	-19	0
Cc1ccc(NC(=O)C(NC2CCCc3ccccc32)c2ccccc2)cc1Cl (stereo not drawn)	-8	5	-26	0.4	-7	2
c1ccc(Oc2ccc(-c3ccn[nH]3)cc2)cc1	9	3	11	0.4	-14	3
Cc1cccc(-n2c(C)cc(C(=S)N3CCOCC3)c2C)c1C	-1	15	-2	-1.5	-5	-17

Entries of single compounds from above. Order of screens: CtBP-E1A inh | TRPV1 potentiator | TRPML1 blocker | TRPML1 agonist | D2 PAM | Six1-Eya2 blk
`Cc1ccc(NC(=O)C(NC2CCCc3ccccc32)c2ccccc2)cc1Cl` (stereo not drawn) is listed with -8 | 5 | -26 | 0.4 | -7 | 2
`c1ccc(Oc2ccc(-c3ccn[nH]3)cc2)cc1` is listed with 9 | 3 | 11 | 0.4 | -14 | 3
`O=C(NNC(=O)c1cccc(Cl)c1)NNC(=O)c1cccc(Cl)c1` is listed with 0 | nt | 1 | 0.5 | -31 | 7
`CCOC(=O)C(C(=O)OCC)C(Nc1cccc(Br)c1)c1ccccc1` (stereo not drawn) is listed with 4 | -18 | 0 | 1.3 | -19 | 0
`COc1ccc(CNC(=O)C(=O)NCC2CCCN2S(=O)(=O)c2cccs2)cc1` (stereo not drawn) is listed with 10 | 9 | 8 | -0.8 | -18 | 0
